NPYLR7 ag = agonists of mosquito NPYLR7 receptor, primary screen, cell-based, Aedes aegypti, calcium fluorescence, mosquito biting behavior; HEK293T NPYLR7/Galpha15, GCaMP6s calcium fluorescence; activation, % at 10 µM; 270,000 tested, 0.15% active; AID 1259423, 2018; in the data active means activation above about 40%;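 further: 0% = vehicle and 100% = reference agonist at the receptor; some compounds past the cut are filed as inactive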
NPYLR7 ag max-min = second read-out of NPYLR7 ag, no call of its own (marks repeat the call); activation, %; measured here: Max-Min RFU normalised activation; some inactives read as strong as hits;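 span of the calcium signal over five minutes; 0% = vehicle and 100% = native peptide agonist; compound fluorescence can raise it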
Numbers without * were called inactive; & = joins results of further samples. Only part of the results is shown, so the mix of outcomes need not match the whole.

#1 COc1ccc(S(=O)(=O)Oc2ccccc2CN(CC(C)C)C(=O)C2CCC2)cc1
#2 COc1cc(OC)c(NC(=O)C2CC3C=CC2C3)cc1F (stereo not drawn)
#3 Cc1ccc(C2(O)CCN(C(=O)c3csc(CN(C)C)n3)CC2)nc1
#4 Cc1cc(C)c(C#N)c(Nc2cc(Cl)ccc2Cl)n1
#5 CN(C(=O)NCC1CCCO1)C1CCS(=O)(=O)C1 (stereo not drawn)
#6 CN(Cc1ccccc1)C1CCCN(Cc2ccc(N3CCNC3=O)cc2)C1 (stereo not drawn)
#7 CCC1(CCC(=O)NC(c2ccccc2)c2ccc(Cl)cc2)CCC(=O)N1 (stereo not drawn)
#8 O=C(c1cc2ccccc2[nH]1)N1CCCC(c2nnc3ccccn23)C1 (stereo not drawn)

Assay by compound | 1 | 2 | 3 | 4 | 5 | 6 | 7 | 8
NPYLR7 ag max-min | 2 | -3 | -2 | -5 | 5 | 2 | 1 | -7
NPYLR7 ag | 16 | 1 | 0 | -3 | 11 | 5 | 4 | -5

#9 c1ccc(-c2nc3c(ccc4ccccc43)[nH]2)nc1
#10 CCc1cccc(NC(=O)N2CCSC2c2ccc(C(C)(C)C)cc2)c1 (stereo not drawn)
#11 COc1cc(=O)n(-c2ccccc2C)nc1C(=O)NC1CCCCC1
#12 CCN1CCC(N(C)C(=O)Nc2ccc(Cl)cc2F)CC1C (stereo not drawn)
#13 O=C(C1CCOCC1)N1CC[C@H]2[C@H](CCCN2C(=O)/C=C/c2cccc(F)c2)C1
#14 O=C(Nc1ccncc1)NC1C2CCCCC21 (stereo not drawn)
#15 NS(=O)(=O)c1ccc(Cl)cn1
#16 CC(C)C[C@@H](CO)n1cc(-c2ccnc3ccccc23)nn1

Assay by compound | 9 | 10 | 11 | 12 | 13 | 14 | 15 | 16
NPYLR7 ag max-min | -1 | 1 | 2 | -4 | -7 | 20 | 5 | 3&10
NPYLR7 ag | 2 | -5 | 2 | -3 | -3 | 3 | 6 | 11&13

#17 O=C(O)C1CCN(C=CC(=O)C(F)(F)F)CC1
#18 O=S(=O)(NCc1ccccc1)NCc1csc(-c2ncccn2)n1
#19 CCc1ccc(OCCN(C)C(=O)c2ccc(C(C)=O)s2)cc1
#20 CC1Cc2ccccc2N1C(=O)c1cccc(S(=O)(=O)N(C)c2cccc(Cl)c2)c1 (stereo not drawn)
#21 COc1ccccc1-c1[nH]nc2nccc(-c3cccc(Oc4ccccc4)c3)c12
#22 COc1cccc(-n2c(=O)[nH]c3c(C(N)=O)nc(-c4ccc(OC)cc4OC)nc32)c1
#23 CC(C)NC(=O)c1cncc(-c2ccc(F)c(F)c2)c1
#24 CN1CC2(CCN(C(=O)CCc3cc(Cl)no3)C2)OC1=O (stereo not drawn)

Assay by compound | 17 | 18 | 19 | 20 | 21 | 22 | 23 | 24
NPYLR7 ag max-min | 6 | 16 | -4 | 13 | 3 | 6 | 2 | 5
NPYLR7 ag | 7 | 1 | -5 | 0 | 6 | 15 | 6 | 8

Continued, starting with the last 4 of the part before.
#21 COc1ccccc1-c1[nH]nc2nccc(-c3cccc(Oc4ccccc4)c3)c12
#22 COc1cccc(-n2c(=O)[nH]c3c(C(N)=O)nc(-c4ccc(OC)cc4OC)nc32)c1
#23 CC(C)NC(=O)c1cncc(-c2ccc(F)c(F)c2)c1
#24 CN1CC2(CCN(C(=O)CCc3cc(Cl)no3)C2)OC1=O (stereo not drawn)
#25 Cc1nn(CCNC(=O)CN2CCOC2=O)c(C)c1Cl
#26 CN(C(=O)CSc1nnc(NC2CCCCC2)s1)C1CCS(=O)(=O)C1 (stereo not drawn)
#27 CN(CCC1CCCCO1)Cc1cnc(S(C)(=O)=O)n1CC1CCCCC1 (stereo not drawn)
#28 O=[N+]([O-])c1ccc(-c2noc(-c3ccc(Br)cc3)n2)cc1
#29 O=C(NC1CC1)C1CCCN(C2CCN(Cc3nccs3)CC2)C1 (stereo not drawn)
#30 CCOC(=O)C1CCCN(C(=O)c2cc3n(n2)CCN(Cc2cc(OC)cc(OC)c2)C3=O)C1 (stereo not drawn)
#31 COc1cccc2cc(-c3csc(Nc4ccc(Oc5ccc(Cl)cc5)cc4)n3)c(=O)oc12
#32 O=C(Nc1cc(-c2ccoc2)nn1-c1ccccc1)C1CCC1

Assay by compound | 21 | 22 | 23 | 24 | 25 | 26 | 27 | 28 | 29 | 30 | 31 | 32
NPYLR7 ag max-min | 3 | 6 | 2 | 5 | 3 | 2 | -3 | -7 | -2 | -2 | -11 | -4
NPYLR7 ag | 6 | 15 | 6 | 8 | 4 | 3 | 4 | -3 | 0 | -5 | -4 | -2

#33 COCCNC(=O)c1ccc(CSc2nc(C)cc(N3CCCC3)n2)cc1
#34 O=C1C(=Cc2c(NCc3ccco3)nc3ccccn3c2=O)SC(=S)N1Cc1ccco1
#35 COc1ccc(-c2cc3nc(CN4CCC4(C)C)[nH]c(=O)c3s2)cc1
#36 CCc1cc(N2CCN(c3ccc(OC)cc3)CC2)nc(SCc2ccc(C(=O)NCCc3ccccn3)cc2)n1
#37 c1nc(N2CCN(Cc3cc4n(n3)CCCNC4)CC2)c2[nH]cnc2n1
#38 COc1cc2c(cc1OC)C1CN(C(=O)Nc3ccc(Br)c(C)c3)CC(=O)N1CC2 (stereo not drawn)
#39 CC(OC(=O)CN1CSCC1=O)C(=O)NC(=O)NC1CCCCC1 (stereo not drawn)
#40 O=P1(Nc2cccc(C(F)(F)F)c2)C=C(c2ccccc2)OC(c2ccccc2)=C1

Assay by compound | 33 | 34 | 35 | 36 | 37 | 38 | 39 | 40
NPYLR7 ag max-min | -2 | -3 | -12 | 9 | 11 | 1 | -5 | -4
NPYLR7 ag | -4 | 2 | -9 | 12 | 17 | 0 | -4 | -1

#41 Cc1nc(N2CCCC2)nc(-c2ccc(S(C)(=O)=O)cc2)c1C
#42 c1cncc(OCCCn2ccnc2-c2cccc3nonc23)c1
#43 O=C(NCCC(c1ccccc1)c1ccccc1)c1cc(-c2ccc(F)cc2)nn1-c1cccc([N+](=O)[O-])c1
#44 Oc1[nH]c2ccc(Br)cc2c1N=Nc1ccc(F)c(Cl)c1
#45 C#CCO[C@@H]1CCN(S(=O)(=O)c2cccs2)[C@H](C(=O)N[C@H](C)C(N)=O)C1
#46 CN(CCCc1ccccc1)C(=O)c1cc(CN2CCC(O)CC2)on1
#47 O=C1NCCN(C(=O)c2ccc(-c3ccco3)cc2)C1Cc1ccccc1 (stereo not drawn)
#48 COC(=O)CCNc1cccc2c1C(=O)c1c(NCCC(=O)OC)cccc1C2=O

Assay by compound | 41 | 42 | 43 | 44 | 45 | 46 | 47 | 48
NPYLR7 ag max-min | 7 | -5 | 11 | -21 | -15 | -13 | -9 | -12
NPYLR7 ag | 11 | -3 | -1 | -12 | -4 | -8 | -2 | -9

Down the list, as entered above:
Compounds 41–44 in NPYLR7 ag read 11, -3, -1, -12
Compounds 41–44 in NPYLR7 ag max-min read 7, -5, 11, -21

Next section
#49 O=C(Cc1c(F)cccc1Cl)N1CCC(Cn2ccnc2)CC1
#50 O=C(Nc1cccc(NC(=O)C2CC2)c1)c1ccccc1
#51 O=C(c1ccc(Cl)cc1Cl)N1CCN(C(C(=O)N2CCc3ccccc3C2)C2CCCC2)CC1 (stereo not drawn)
#52 COc1ccccc1COCC(O)CN1CCN(C)CC1c1ccccc1 (stereo not drawn)
#53 CC(c1ccc2c(c1)OCCO2)N(C)C(=O)CCc1nnc(-c2ccc3c(c2)OCO3)o1 (stereo not drawn)
#54 Cc1cc(C)c(S(=O)(=O)Nc2ccc3oc(C)nc3c2)c(C)c1
#55 O=C(NCc1ccncc1)c1nn(-c2ccc(Cl)cc2)c(=O)n(Cc2cccc(F)c2)c1=O
#56 Cc1nn(-c2ccccc2)c(-c2ccccc2)c1C(=O)N(C)Cc1ccccc1

Assay by compound | 49 | 50 | 51 | 52 | 53 | 54 | 55 | 56
NPYLR7 ag max-min | -4 | 0 | -4 | 4 | 1 | -3 | 10 | 35
NPYLR7 ag | -1 | 0 | -5 | 5 | 3 | -4 | 15 | 27

#57 CN(CCNS(C)(=O)=O)c1ccc2ccc(F)cc2n1
#58 CC1CN(c2c(F)c(N)c3c(=O)c(C(=O)O)cn(C4CC4)c3c2F)C[C@H](C)N1 (stereo partly drawn)
#59 CC(C)(CNc1ncnc2ccc(F)cc12)S(C)(=O)=O
#60 COC(=O)CN1N=C(C(=O)N2CCCC2)S(=O)(=O)c2ccccc21
#61 Cc1cccnc1CN1CCN(Cc2c(CO)cnc(C)c2O)CC1
#62 CCOC(=O)c1cc2c(=O)n3ccccc3nc2n(C(C)C)c1=NC(=O)c1ccco1
#63 CN1CCC(CN2CCN(CCC(=O)Nc3cccnc3)CC2)CC1
#64 NC(=O)c1ccc(C(=O)OCc2c(Cl)nc3sccn23)cc1

Assay by compound | 57 | 58 | 59 | 60 | 61 | 62 | 63 | 64
NPYLR7 ag max-min | 1 | -6 | -1 | -10 | 5 | 5 | -8 | 10
NPYLR7 ag | 1 | -6 | 2 | -8 | 7 | 6 | -7 | 11

Random excerpt: 7 records from the list
#61 Cc1cccnc1CN1CCN(Cc2c(CO)cnc(C)c2O)CC1
#62 CCOC(=O)c1cc2c(=O)n3ccccc3nc2n(C(C)C)c1=NC(=O)c1ccco1
#58 CC1CN(c2c(F)c(N)c3c(=O)c(C(=O)O)cn(C4CC4)c3c2F)C[C@H](C)N1 (stereo partly drawn)
#59 CC(C)(CNc1ncnc2ccc(F)cc12)S(C)(=O)=O
#60 COC(=O)CN1N=C(C(=O)N2CCCC2)S(=O)(=O)c2ccccc21
#64 NC(=O)c1ccc(C(=O)OCc2c(Cl)nc3sccn23)cc1
#63 CN1CCC(CN2CCN(CCC(=O)Nc3cccnc3)CC2)CC1

Assay by compound | 61 | 62 | 58 | 59 | 60 | 64 | 63
NPYLR7 ag max-min | 5 | 5 | -6 | -1 | -10 | 10 | -8
NPYLR7 ag | 7 | 6 | -6 | 2 | -8 | 11 | -7

An excerpt from above in order of length of the SMILES, low to high:
#61 Cc1cccnc1CN1CCN(Cc2c(CO)cnc(C)c2O)CC1
#64 NC(=O)c1ccc(C(=O)OCc2c(Cl)nc3sccn23)cc1
#62 CCOC(=O)c1cc2c(=O)n3ccccc3nc2n(C(C)C)c1=NC(=O)c1ccco1

Assay by compound | 61 | 64 | 62
NPYLR7 ag max-min | 5 | 10 | 5
NPYLR7 ag | 7 | 11 | 6

(further entries)
#65 CCC1CCCCN1c1ccn2c(=O)[nH]nc2n1 (stereo not drawn)
#66 O=C(CC1CCCC1)NCC(CO)Cc1ccc(F)cc1 (stereo not drawn)
#67 COc1cc(OC)cc(-c2cn(S(=O)(=O)c3ccc(C)cc3)nc2N)c1
#68 CC(=O)c1ccccc1NC(=O)CSc1ncnc2sc3c(c12)CCC3
#69 Cc1cccc(CN(CCN(C)C)C(=O)C2CCc3cn[nH]c3C2)c1 (stereo not drawn)
#70 CCCOc1ccc(Br)cc1-c1cc(-c2ccc(Cl)cc2)[nH]c1-c1ccncc1
#71 CC(CCCC(C)(C)O)CCN1CCC2(CC1)C(=O)NCCCN2C (stereo not drawn)
#72 COc1ccc(Cn2cnc3cnc(-c4ccc(N)nc4)cc32)cc1OC

Assay by compound | 65 | 66 | 67 | 68 | 69 | 70 | 71 | 72
NPYLR7 ag max-min | -5 | 3 | 2 | -10 | 14 | -11 | -6 | -4
NPYLR7 ag | -1 | 5 | 3 | -4 | 20 | -8 | -6 | 7

#73 COc1ccc(C=CC(=O)Nc2nnc(C)s2)cc1OC
#74 CN(C)CCCN(C(=O)CCc1ccccc1)c1nc2c(F)cc(F)cc2s1
#75 CCOc1ccc(Nc2cc(C(=O)N3CCSCC3)nc3cc(OC)c(OC)cc23)cc1
#76 CCN1C(=O)/C(=C2/C=Cc3cc(OC)ccc3N2CC)SC1=S
#77 CC(O)[C@@H](NC(=O)C1(c2ccccc2)CCN(C(=O)OC(C)(C)C)CC1)C(=O)O (stereo partly drawn)
#78 O=C(NC1CCCc2ccccc21)C1CC(=O)N(C2CC2)C1 (stereo not drawn)
#79 c1ccc(-n2nc(C3CC3)nc2-c2cccc(-n3cnnc3)c2)cc1
#80 CCOc1ccc(S(=O)(=O)N2CCN(C(=O)CCC(=O)c3ccc(SC)cc3)CC2)cc1

Assay by compound | 73 | 74 | 75 | 76 | 77 | 78 | 79 | 80
NPYLR7 ag max-min | 7 | 1 | 38 | -8 | 17 | 4 | 9 | 8
NPYLR7 ag | -6 | 4 | 34 | -7 | 0 | 8 | 20 | 1

#81 COc1ccccc1-c1noc2nc(OCc3cc(C)on3)ccc12
#82 CCc1cccc(NC(=O)c2ccc(S(=O)(=O)NCC(C)O)cc2)c1 (stereo not drawn)
#83 COc1ccccc1NC1=CC(=O)N(CCO)C1=O
#84 CCC(Nc1nccc(-c2ccc(C)nc2C)n1)c1cc(C)ccn1 (stereo not drawn)
#85 Cc1ccn2cc(Cn3nc(C4CCCNC4)n(-c4ccccc4)c3=O)nc2c1 (stereo not drawn)
#86 CCCCc1ccc(NC(=O)COc2cc(=O)n(-c3ccccc3C)nc2C(=O)OCC)cc1
#87 CCOc1ccccc1N1CCN(C(=O)c2cc(-c3ccc(F)cc3)n(-c3ccccc3)c2C)CC1
#88 COc1ccccc1N1CCN(C(=O)c2cccc([N+](=O)[O-])c2)CC1

Assay by compound | 81 | 82 | 83 | 84 | 85 | 86 | 87 | 88
NPYLR7 ag max-min | 8 | 1 | 6 | 3 | 3 | 3 | 4 | 1
NPYLR7 ag | 18 | 1 | 6 | 18 | 3 | 6 | -5 | 1

#89 Cc1nc(NC(=O)CC2CCCC2)sc1-c1nccn1C(F)F
#90 COc1cccc(C(=O)N2CCC3(CC2)NC(=O)c2ccc(Cl)cc2N3)c1
#91 COc1ccc(-c2csc(-n3nc(C)cc3NC(=O)c3ccco3)n2)cc1OC
#92 O=C(CCN1Cc2ccccc2C1=O)N1CCC2(CCCN(Cc3ccc(F)cc3)C2)C1 (stereo not drawn)
#93 COc1cc(NS(=O)(=O)NCc2ccccc2)cc(OC)c1
#94 Cc1ccc(CNC(=O)Cn2c(CO)cnc2SCc2cccc(C(F)(F)F)c2)cc1

Assay by compound | 89 | 90 | 91 | 92 | 93 | 94
NPYLR7 ag max-min | -16 | 11 | -10 | -2 | 3 | 5
NPYLR7 ag | -12 | -2 | -6 | 2 | 6 | 10
